Rango complex inh: inhibitors of Rango-importin beta complex formation | 340,000 compounds, 0.031% hits | Potency, µM (series often up to 92.2 µM), inactives show at the top dose inhibition of complex formation | Rango CFP/YFP FRET sensor + importin beta, 45 min | Q14974; active = rising FRET ratio curve, often small or poorly fitted; inconclusive = mostly compound fluorescence or quenching in the first reads; inactive = flat curves in all reads;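 further: potency means the concentration at half of the fitted maximal effect; 0% = DMSO wells and 100% = buffer wells lacking importin beta; nearly all actives have a fitted effect of over 15% in size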
Target sequence (Q14974 whole entry, looked up): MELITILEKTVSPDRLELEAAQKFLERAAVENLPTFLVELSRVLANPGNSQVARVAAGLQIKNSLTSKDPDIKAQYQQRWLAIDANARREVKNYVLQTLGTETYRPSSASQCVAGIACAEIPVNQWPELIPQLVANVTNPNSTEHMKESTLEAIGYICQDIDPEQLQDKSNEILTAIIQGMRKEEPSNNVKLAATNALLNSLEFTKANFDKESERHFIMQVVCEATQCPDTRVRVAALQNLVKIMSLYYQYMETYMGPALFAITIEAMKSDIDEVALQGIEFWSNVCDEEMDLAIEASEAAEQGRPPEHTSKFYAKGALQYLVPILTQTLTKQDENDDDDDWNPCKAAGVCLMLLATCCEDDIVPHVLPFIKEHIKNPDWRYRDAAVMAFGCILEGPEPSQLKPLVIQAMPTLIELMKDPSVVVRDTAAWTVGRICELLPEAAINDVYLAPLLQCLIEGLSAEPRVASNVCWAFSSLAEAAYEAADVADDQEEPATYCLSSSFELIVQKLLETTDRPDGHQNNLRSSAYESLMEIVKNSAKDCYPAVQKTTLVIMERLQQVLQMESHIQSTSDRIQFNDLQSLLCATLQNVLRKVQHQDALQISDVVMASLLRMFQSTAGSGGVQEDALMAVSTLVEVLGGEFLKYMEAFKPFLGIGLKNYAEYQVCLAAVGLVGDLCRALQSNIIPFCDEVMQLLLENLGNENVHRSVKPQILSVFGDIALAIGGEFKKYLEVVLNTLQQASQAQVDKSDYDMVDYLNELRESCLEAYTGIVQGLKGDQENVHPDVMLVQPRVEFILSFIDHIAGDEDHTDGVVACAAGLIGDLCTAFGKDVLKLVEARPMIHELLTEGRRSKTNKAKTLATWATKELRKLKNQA
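FRET biosensor (snurportin 1 IBB flanked by EYFP and cerulean), 50 nM, with compound 5 min, then 0.125 microM importin beta in PBS, 1 mM DTT, 0.02% Tween-20, 0.1% BSA. CFP/YFP ratio read after 45 min at room temperature; pre-read flags interference.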
GLA inh pH 4.5: alpha-galactosidase A (human) inhibition, pH 4.5; P06280; purified enzyme, 4-MU-alpha-Gal fluorescence, pH 4.5; activity change, negative = inhibition, % at 105 µM; 230,000 tested, under 10 active; AID 1467; inconclusive = small, poorly fitted or top-dose-only inhibition, or a rising curve; inactive = flat fitted curve, though single readings scatter; no compound was filed as active;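 further: 0% = full activity with enzyme and -100% = basal without enzyme; dose as in the result columns while the protocol names 77 µM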
Rango release inh: inhibitors of RanGTP-induced Rango-importin beta complex dissociation. O95149+P62826. Biochemical FRET Rango-importin beta, RanGTP-induced dissociation. Potency, µM (series often up to 46.1 µM), for inactives: top-dose activity change, negative = inhibition. 340,000 compounds, 0.071% hits. AID 540253; active means falling FRET ratio curve, often poorly fitted, with flat reads before Ran was added; inconclusive means other falling curves, or compound fluorescence or quenching; inactive means flat or rising ratio curve;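 further: potency means the concentration at half of the fitted maximal effect; % of control where 0% means no effect; nearly all actives have a fitted effect of over 45% in size; -100% = wells without RanGTP and RCC1; the record marks most hits as doubtful in a second field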
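Compounds preincubate 5 min with complex of recombinant Rango and importin beta in PBS with 1 mM DTT. Ran (0.6 uM) loaded with 2 mM GTP plus 0.2 uM RCC1 starts dissociation; FRET is recorded 45 min later.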
miR-21 FLuc: raises the signal of a miR-21 reporter | HeLa miR-21 FLuc reporter, luciferase, 48 h | 340,000 tested, under 10 active | Potency, µM (highest dose often 38.3 µM), inactives show top-dose reporter change, positive = more light | AID 2288; active = well fitted rising curve with a large enough effect; inconclusive = small, poorly fitted or top-dose-only effect; inactive = no such curve, though single readings can be large or run the other way;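 further: % of control where 0% means no effect; miR-21 action dims this reporter so a rising signal means less miR-21 action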
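HeLa cells endogenously expressing miR-21, stably carrying CMV-driven firefly luciferase with a downstream miR-21 binding site, 2000 cells/well. Titrations up to approximately 40 uM, 48 hours; luciferase luminescence read.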
* hit, by the source's call; ? = inconclusive; . = not tested or not shown.

Rango complex inh | GLA inh pH 4.5 | Rango release inh | miR-21 FLuc | SMILES
0.1% | -9 | 0% | -13% | Cc1ccc(Sc2cc(Cl)nc(N)n2)cc1
-5.4% | . | -7% | -18% | CCOc1ccc(OCc2ccc(C(=O)N3CCCCC3)o2)cc1
1.8% | . | 9% | 10% | COc1ccc(C(C)C)cc1S(=O)(=O)Nc1ncn[nH]1
-1.5% | . | 16% | . | COc1ccc(C(=O)COC(=O)c2sccc2C)cc1OC
2.3% | -1 | 9% | -18% | Cc1ccccc1NC(=O)CN1C(=O)COc2ccc(Cl)cc21
-0.9% | -3 | ? | -2% | COCc1cc(Sc2cccc(Cl)c2Cl)nc(-c2ccccc2)n1
-13% | -2 | 0% | -11% | O=C(CCSCCc1ccccn1)Nc1ccc(Br)cc1F
-3.5% | 20 | 2% | -7% | COc1ccc(OC)c(/C=N/NC(=O)CN2CCSCC2)c1
-0.3% | . | -12% | -5% | O=C(CCNC(=O)N1CCn2c1nc1ccccc12)NCc1ccccc1
1.7% | . | 7% | -50% | CC(C)(C)C(=O)N1CCN(c2nc3ccc(Cl)cc3s2)CC1

Brought forward from above: 4 entries, followed by the next part.
Rango complex inh | GLA inh pH 4.5 | Rango release inh | miR-21 FLuc | SMILES
-13% | -2 | 0% | -11% | O=C(CCSCCc1ccccn1)Nc1ccc(Br)cc1F
-3.5% | 20 | 2% | -7% | COc1ccc(OC)c(/C=N/NC(=O)CN2CCSCC2)c1
-0.3% | . | -12% | -5% | O=C(CCNC(=O)N1CCn2c1nc1ccccc12)NCc1ccccc1
1.7% | . | 7% | -50% | CC(C)(C)C(=O)N1CCN(c2nc3ccc(Cl)cc3s2)CC1
-0.1% | 2 | 0% | -1% | COc1ccc(CC(=O)Nc2ccccc2C(=O)N2CCOCC2)cc1OC
-0.5% | . | 15% | . | O=C(CCc1nc2ccccc2c(=O)[nH]1)NNC(=O)c1ccccc1Cl
-0.8% | 3 | -9% | -6% | Cc1ccc(-c2csc(NC(=O)/C=C/c3ccco3)c2C(=O)O)cc1
2.1% | . | 11% | -1% | CC1CCC(CN2C(Nc3ccccc3)=NC[C@@H]2C)CC1 (stereo not given in full)
2.6% | 4 | 2% | 0% | Cc1nc2ccccn2c1C(=O)/C=C/c1cccc([N+](=O)[O-])c1
0.4% | . | 9% | -41% | COc1ccccc1CN1CC(C(=O)NCc2cc(F)ccc2C)CCC1=O (stereo not given)
6.7% | . | -2% | . | CCOC(=O)C1CCN(S(=O)(=O)CCNC(=O)c2ccc(F)cc2)CC1
? | 1 | 0% | -27% | Cc1cc(=O)[nH]c(N/N=C/c2ccc(N(C)C)cc2)n1
2.0% | -3 | -2% | -2% | O=C1C2CC=CCC2C(=O)N1Cc1ccccc1 (stereo not given)
-2.9% | -7 | 17% | -3% | O=C(Nc1ccccc1-c1ccccc1)c1ccc(Cl)c([N+](=O)[O-])c1
-0.7% | -3 | -1% | 0% | CCOc1cc(NC(=O)c2ccccn2)c(OCC)cc1NC(=O)c1ccc(C)cc1
-1.7% | . | 6% | . | Cn1c(=O)c2c(ncn2CC(=O)N2CCN(S(=O)(=O)c3ccc(F)cc3)CC2)n(C)c1=O
-1.7% | 3 | -5% | 0% | COc1ccc(-c2nnc3ccc(SCC(=O)N4CCCC4)nn23)cc1
2.0% | 5 | 9% | -4% | Cc1ccc(CNC(=O)CCNS(=O)(=O)c2cccc3nonc23)cc1
-2.1% | 9 | 8% | -5% | O=C(O)C1C2C=CC(O2)C1C(=O)NCc1ccc(Cl)cc1 (stereo not given)
-2.7% | 1 | 16% | -14% | CCc1nc2ccc(C(=O)NCc3ccco3)cc2nc1CC
1.4% | 8 | 15% | -11% | CCOC(=O)c1sc(-c2ccc(C)cc2)c(C#N)c1C
0.1% | . | 0% | -65% | CC(C)OC(=O)c1ccc2nc3ccccc3nc2c1
-0.7% | . | 11% | . | CCC(C)C(CO)NCCCn1cnc(C(=O)Nc2ccc(C)c(C)c2)n1 (stereo not given)
0.4% | . | 2% | 24% | CN(c1cccc(NC(=O)c2ccc(CN3CCc4ccccc4C3)cc2)c1)S(C)(=O)=O
0.0% | . | -14% | -3% | C=Cc1ccc(C(=O)NC2CCCN(Cc3ccccc3F)C2)cc1 (stereo not given)
4.0% | . | -8% | 20% | CCOc1cccc(CN2CCC(n3nccc3NC(=O)CCCc3ccccc3)CC2)c1
-1.5% | . | 0% | 0% | COc1ccc(NC(=O)NNC(=O)COc2ccc3cc(Br)ccc3c2)cc1OC
-0.9% | -8 | -8% | 16% | Cc1ccc(NC(=O)c2cccs2)cc1S(=O)(=O)Nc1cccc(Cl)c1
1.1% | -8 | 15% | -65% | COc1ccc(-c2cc(C(=O)c3c(N)n(C)c(=O)n(C)c3=O)c3ccccc3n2)cc1OC
-0.5% | . | -6% | . | CN(CC(=O)Nc1ccccc1C(F)(F)F)CC(=O)N1CCCCCC1
6.8% | -4 | -12% | -1% | Nc1cc(Cl)ccc1N1C(=O)CCC1=O
? | -11 | ? | -7% | COn1c2c(c3c4nonc4ccc31)CCCC2
4.2% | 3 | -4% | 1% | CCN(CC)C(=O)CSc1nc2[nH]ncc2c(=O)[nH]1
0.5% | 9 | -11% | -49% | c1ccc2c(c1)oc1c(NCC3CCCO3)ncnc12 (stereo not given)
? | . | -21% | . | COc1ccc(C(=O)NCCN(C)C)c2nc3ccccc3cc12
-3.2% | -11 | 2% | -8% | O=C(Nc1nnc(SCC(=O)N2CCCc3ccccc32)s1)c1ccc2ccccc2c1
-5.2% | -7 | 6% | -2% | Cc1cc(C)c(CN2CCCC(CNC(=O)c3ccc(F)cc3)C2)c(-n2cccn2)c1 (stereo not given)
-0.7% | . | -22% | 19% | CCc1ccc(-c2cc(C)no2)cc1S(=O)(=O)N1CCN(c2ccc(C(C)=O)cc2)CC1
-0.6% | 2 | -6% | -1% | O=C(O)CSc1nnc(-c2ccncc2)n1CCc1ccccc1
-4.6% | . | -7% | . | Cc1ccc(C(=O)N2CCN(c3cccc(C)c3C)CC2)cc1S(=O)(=O)N1CCOCC1
17% | -6 | -20% | -19% | CC1C/C(=N\NC(=O)c2ccc(NS(=O)(=O)c3ccc(Br)cc3)cc2)CC(C)(C)C1 (stereo not given)
-1.4% | -3 | -2% | 2% | O=c1nc(N/N=C/c2ccccn2)cn[nH]1
-0.1% | . | -3% | . | COc1ccccc1C(=O)NCCC(=O)NC1CCCCCC1
-1.8% | 1 | -20% | -17% | COc1ccc(/C=N\n2nnc3ccccc32)cc1
? | 11 | 6% | 1% | Cc1cccc(CS(=O)(=O)Cc2ccc(C(=O)NCc3ccco3)o2)c1
-3.4% | 5 | 15% | 3% | CC(C)=CC(=O)OCC(=O)Nc1ccc(SC(F)F)cc1
-4.1% | 3 | 13% | -1% | Cc1ccc(SCc2cc(=O)[nH]c(Nc3nc(C)c4cccc(C)c4n3)n2)cc1
1.4% | . | 6% | . | Cc1nnc(SCC(=O)Nc2ccc3[nH]c(=O)[nH]c3c2)s1
? | . | -2% | . | Cc1ccc(CN2C(=O)[C@@H]3Cc4c([nH]c5ccccc45)C(C)(C)N3C2=O)cc1
-0.6% | -8 | -11% | -9% | O=c1cc(CSc2nnc3ccccn23)c2c(ccc3ccccc32)o1
4.1% | -1 | -7% | -9% | Cc1ccc(/C=C(\NC(=O)c2ccccc2)C(=O)NCC2CCCO2)o1 (stereo not given)
2.0% | 2 | -9% | -11% | Cc1[nH]c(=O)[nH]c(=O)c1NC(=O)CSc1ncccc1-c1nc2ccccc2[nH]1
-2.8% | . | 7% | 9% | CC(=O)N(C)c1ccc(OCC(O)CN(c2ccccc2C)S(=O)(=O)c2ccc(C)cc2)cc1 (stereo not given)
0.8% | -6 | 3% | -42% | O=C1OC(c2ccc3c(c2)OCO3)N(C(=O)c2ccc(Cl)c(Cl)c2)c2ccccc21 (stereo not given)

Compounds shown so far that have a furan ring, fused or not:
Rango complex inh | GLA inh pH 4.5 | Rango release inh | miR-21 FLuc | SMILES
-5.4% | . | -7% | -18% | CCOc1ccc(OCc2ccc(C(=O)N3CCCCC3)o2)cc1
-0.8% | 3 | -9% | -6% | Cc1ccc(-c2csc(NC(=O)/C=C/c3ccco3)c2C(=O)O)cc1
-2.7% | 1 | 16% | -14% | CCc1nc2ccc(C(=O)NCc3ccco3)cc2nc1CC
0.5% | 9 | -11% | -49% | c1ccc2c(c1)oc1c(NCC3CCCO3)ncnc12 (stereo not given)
? | 11 | 6% | 1% | Cc1cccc(CS(=O)(=O)Cc2ccc(C(=O)NCc3ccco3)o2)c1
4.1% | -1 | -7% | -9% | Cc1ccc(/C=C(\NC(=O)c2ccccc2)C(=O)NCC2CCCO2)o1 (stereo not given)

Going on with the list.
Rango complex inh | GLA inh pH 4.5 | Rango release inh | miR-21 FLuc | SMILES
0.9% | -7 | 5% | 9% | Cc1ccc(Cl)cc1N1CCN(C(=O)C2CCN(c3nnc(-n4cccc4)s3)CC2)CC1
-1.3% | . | 21% | . | Cc1cc(C)n(-c2nc3c(c(=O)n(C)c(=O)n3C)n2Cc2cccc(Br)c2)n1
0.9% | . | -7% | 6% | COc1ccccc1NS(=O)(=O)c1ccc(C)c(C(=O)NCC(c2ccco2)N2CCCCC2)c1 (stereo not given)
-2.5% | 17 | 0% | -2% | CN(C)c1cc(NC(=O)CNC(C)(C)C)c2ccccc2n1
-0.5% | -1 | 14% | 0% | Cc1cc(C)c2c3c(oc2n1)C(=O)N(c1cccc(Cl)c1)CC(=O)N3
-4.0% | 4 | -1% | -45% | c1ccc(CCn2cnc3ccccc32)cc1
-3.3% | . | 32% | 1% | O=C1Nc2ccccc2C1(O)c1ccccc1O (stereo not given)
-0.3% | 6 | -4% | -3% | CCOc1cc(/C=C2\C(=O)ON=C2C)ccc1OCc1ccccc1
1.3% | -7 | ? | 11% | COc1cccc(/C=N\NC(=O)Cn2nnc3ccccc32)c1O
-4.7% | . | 0% | 0% | OCC1(Cc2ccccc2F)CCCN(CCc2ccccc2)C1 (stereo not given)
-1.6% | -1 | 1% | -2% | O=C(NNS(=O)(=O)c1ccccc1[N+](=O)[O-])c1ccccc1Cl
3.1% | . | 19% | 0% | CCc1ccc(S(=O)(=O)Nc2ccc(Br)cn2)cc1
0.1% | -3 | -13% | 2% | CCCn1c(SCC(=O)NCc2ccccc2)n[nH]c1=O
-5.6% | ? | -17% | 8% | Cc1ccc(-c2noc(CCC(=O)N3CCN(c4cccc(C(F)(F)F)c4)CC3)n2)cc1
. | 12 | . | 2% | FC(F)(F)c1cc(C(F)(F)F)c2ccc(N/N=C/c3cccc(Cl)c3)nc2n1
-2.5% | 14 | -4% | 1% | Cc1ccc(-c2nc(N)n(C(=O)c3cccs3)n2)cc1
-1.0% | 13 | -20% | 23% | O=C(Cn1c(-c2ccccc2)c[n+]2ccsc12)c1ccccc1
1.6% | . | -7% | . | Cc1ccccc1N1CCN(C(=O)c2cccnc2)CC1
-4.7% | . | 0% | . | N#Cc1cccnc1N1CCN(C(=O)c2ccc3c(c2)S(=O)(=O)c2ccccc2C3=O)CC1
0.7% | . | 5% | -1% | O=C1C(=O)N(Cc2cccnc2)C(c2cccc(F)c2)/C1=C(/O)c1ccc2c(c1)OCO2 (stereo not given)
1.2% | -4 | -18% | -14% | CCc1nnc(NS(=O)(=O)c2ccc(NC(=S)NC(=O)c3ccccc3)cc2)s1
4.1% | 0 | -1% | 2% | Cc1nn(C)c(C)c1/C=C(/C(=O)C(C)C)n1cncn1
3.3% | 2 | 6% | 2% | Cc1nn(-c2ccccn2)c(C)c1Oc1ccccc1O

High-throughput results from PubChem BioAssay.

This is a subset; the hit share may differ from the screen's.
